Screening results (PubChem BioAssay)
D2 ag: activates the human D2 dopamine receptor; P14416; DiscoveRx PathHunter D2 beta-arrestin, luminescence, 90 min; 100% = 57 uM dopamine signal; activation, % (test concentration not listed); 0.084% of 360,000 active; AID 624465; in the data active = activation above about 40%; inconclusive = about 15% to 40%; inactive = below about 15%; further: compound concentration not given in the record; the text of the record calls up to 30% inactive
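Agonist mode: compounds alone added to overnight-plated D2 PathHunter cells for 90 min at 37 C, with 57 uM final dopamine (EC100) defining full response. Beta-arrestin recruitment detected by chemiluminescent reagent, read after 1 h at ambient temperature.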
TRPV1 potentiator: potentiators of human vanilloid receptor 1 (TRPV1). TRPV1-expressing cells, Fluo-8 calcium influx, capsaicin EC20 potentiation; host cell line not named in the record; control for the full effect not named in the record. potentiation, % at 8.33 µM. 0.02% of 320,000 active; active means potentiation above 80%; inconclusive means 30% to 80%; inactive means below 30%; further: 0% is about no effect
Target sequence (Q8NER1 whole entry, looked up): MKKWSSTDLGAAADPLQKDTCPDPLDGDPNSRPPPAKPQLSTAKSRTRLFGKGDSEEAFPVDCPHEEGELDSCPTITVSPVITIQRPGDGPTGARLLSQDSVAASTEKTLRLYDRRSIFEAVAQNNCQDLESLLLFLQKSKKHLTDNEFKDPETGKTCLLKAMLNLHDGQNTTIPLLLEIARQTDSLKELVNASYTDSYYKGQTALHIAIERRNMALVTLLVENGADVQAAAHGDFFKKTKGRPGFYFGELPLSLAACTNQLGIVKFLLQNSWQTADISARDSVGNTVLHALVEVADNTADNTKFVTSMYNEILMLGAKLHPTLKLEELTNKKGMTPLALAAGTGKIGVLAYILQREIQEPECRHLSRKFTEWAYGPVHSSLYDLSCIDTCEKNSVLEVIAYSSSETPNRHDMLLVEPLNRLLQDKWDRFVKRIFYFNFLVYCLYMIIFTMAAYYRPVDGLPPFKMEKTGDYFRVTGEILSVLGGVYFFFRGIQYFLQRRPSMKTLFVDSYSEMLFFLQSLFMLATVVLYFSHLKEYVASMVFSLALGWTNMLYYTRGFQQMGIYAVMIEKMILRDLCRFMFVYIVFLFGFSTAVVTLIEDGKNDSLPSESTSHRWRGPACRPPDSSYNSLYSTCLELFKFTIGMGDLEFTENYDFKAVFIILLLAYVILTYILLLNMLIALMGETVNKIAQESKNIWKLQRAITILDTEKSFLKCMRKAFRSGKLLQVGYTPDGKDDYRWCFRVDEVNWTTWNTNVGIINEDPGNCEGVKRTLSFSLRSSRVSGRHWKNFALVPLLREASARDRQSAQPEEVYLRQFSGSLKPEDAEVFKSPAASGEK
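Cells expressing TRPV1 were dye-loaded with Fluo-8 and read kinetically: 10 s baseline, 3 min after compound (agonist portion), then 2 min after EC20 capsaicin (allosteric enhancer portion). Calcium-bound dye fluorescence at 480/520 nm.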
Six1-Eya2 inh: blocks human Six1 binding to Eya2. Q15475+O00167. AlphaScreen GST-Six1/His-Eya2 binding, biochemical; hits give low values; control for the full effect not named in the record. activity change, % (test concentration not listed). 0.56% of 360,000 active. AID 651725; in the data active = activity change below about -65%; inconclusive = about -30% to -65%; inactive = above about -30%; further: on the % scale 0 is the no-effect control and ±100 the full control effect; compound concentration not given in the record
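GST-Six1 + His-Eya2 (5X stock: 250/500 nM); Tris pH 8.0, 300 mM NaCl, 0.05% BSA, 0.02% Tween 20; GSH donor/Ni acceptor beads; 1 h 37 °C dark; AlphaScreen readout.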
CtBP-E1A blk: blocks the CtBP interaction with E1A; AlphaScreen GST-E1A/His-CtBP binding, 1536-well; hits give low values; control for the full effect not named in the record; activity change, % (no concentration beside the values); 0.49% of 340,000 active; AID 651724; in the data active means activity change below about -65%; inconclusive means about -30% to -65%; inactive means above about -30%; further: on the % scale 0 is the no-effect control and ±100 the full control effect; compound concentration not given in the record
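In 5 uL wells, 23 nL compound meets equimolar GST-E1A and His-CtBP (5X stock 125 nM each) for 2 h, 37 °C. Beads (5X, 50 ug/mL) then 1 h, 37 °C, dark.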
PINK1 modulator: modulators of PINK1 expression | Potency, µM (doses to about 76.6 µM), without a hit: at the highest dose activation (PINK1 increase), most hits filed as activators | PINK1 immunofluorescence, high-content cytometry, 24 h | 0.2% of 410,000 active; active = well fitted activation curve with a large enough effect; inconclusive = small, poorly fitted or top-dose-only effect; inactive = flat fitted curve, though single readings scatter; cell line not stated here;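 further: potency means the concentration at half of the fitted maximal effect; % of control where 0% means no effect; nearly all actives have a fitted effect of over 65% in size; a mitochondrial uncoupler was the plate control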
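Readout is PINK1 immunofluorescence, quantified alongside mitochondrial, cell and nuclear markers by laser-scanning microplate cytometry. Cells from a stable line were exposed to compound titrations (5 concentrations) for 24 hours, with CCCP controls.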
Sfp inh: blocks B. subtilis Sfp PPTase activity | Q9F4F7 | 3.5% of 310,000 active | Biochemical Sfp PPTase activity, qHTS | Potency, µM, for the others: max response, negative = inhibition, actives largely listed as inhibitors; active means well fitted inhibition curve with a large enough effect; inconclusive means small, poorly fitted or top-dose-only effect, or another doubt; inactive means no such curve, though single readings can be large or run the other way;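 further: the enzyme is Sfp with the accession as filed and its product quenches rhodamine fluorescence; potency means the concentration at half of the fitted maximal effect; 0% = enzyme reaction without inhibitor and -100% = no enzyme wells; top concentration of the series not given in the record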
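Step 1, compound plus 15 nM Sfp-PPTase, 15 min, room temperature. Step 2, add rhodamine-CoA (5 uM) and BHQ-2-YbbR (12.5 uM). Step 3, read 525/598 nm fluorescence at 0 and 30 min.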
D2 PAM: human D2 receptor positive allosteric modulation | potentiation, % (test concentration not listed) | P14416 | DiscoveRx D2 beta-arrestin cells, luminescence, 90 min; 100% = 57 uM dopamine signal | AID 624464 | 0.23% of 360,000 active; active = potentiation of 50% or more; inconclusive = 30% to 50%; inactive = 30% or less;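 further: compound concentration not given in the record; tested on top of an EC20 dose of dopamine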
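PathHunter beta-arrestin assay in DiscoveRx D2 cells. Compounds were added with an EC20 of dopamine (50 nM final) for 90 min at 37 deg C. Luminescence was read 1 h after detection reagent, with 57 uM dopamine as the EC100 control.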
Active calls of the source: *; ? = inconclusive; . = no result given; & = joins results of further samples; [ ] = remark or other dose.

Letters: A = D2 ag; B = TRPV1 potentiator; C = Six1-Eya2 inh; D = CtBP-E1A blk; E = PINK1 modulator; F = Sfp inh; G = D2 PAM
[1] COC(=O)CSCC(=O)Nc1nnc(-c2ccccc2C)s1
  A: -4.4	B: -5	C: -4	D: .	E: -0.6%	F: 8%	G: 2
[2] COc1ccc(Cc2nnc(SCC(=O)N(C)c3ccccc3)o2)cc1
  A: 4.1	B: 2	C: 0	D: 0	E: -0.5%	F: 10%	G: -3
[3] CCn1nc(C)c(CNC(=O)CC2C(=O)NCCN2CC(C)C)c1C (stereo not given)
  A: -1.3	B: -7	C: -2	D: 1	E: 2.1%	F: -1%	G: -4
[4] Cc1ccc(N2CC(C(=O)Nc3nnc(SCCC4OCCO4)s3)CC2=O)cc1C (stereo not given)
  A: 4.3	B: 1	C: 2	D: 6	E: 4.4%	F: -11%	G: 23
[5] COc1ccc(-c2c(C)nn3c(N4CCCCCC4)cc(C)nc23)cc1OC
  A: 7.6	B: -38	C: -5	D: 2	E: ?	F: -26%	G: 0
[6] O=[N+]([O-])c1ccccc1S(=O)c1ccccc1[N+](=O)[O-]
  A: 3.8	B: .	C: -3	D: 0	E: 1.8%	F: .	G: 9
[7] O=C(CSc1nnc(-c2cc3ccccc3cc2O)n1Cc1ccco1)c1ccc(F)cc1
  A: -4.8	B: .	C: -7	D: -14	E: 8.9%	F: 21%	G: -11
[8] COCCN=c1scc(-c2ccc3c(c2)NC(=O)CO3)n1/N=C(\C)c1ccc(O)cc1
  A: -0.1	B: 7	C: ?	D: -23	E: ?	F: 89µM*	G: -8
[9] O=C(COc1ccc2c3c(c(=O)oc2c1)CCC3)NCCCN1CCCC1=O
  A: -0.9	B: 4	C: -3	D: -7	E: -1.3%	F: 17%	G: -9
[10] COc1ccc(NS(=O)(=O)c2cccc(C(=O)N3CCN(C(=O)c4ccco4)CC3)c2)cc1
  A: 1.6	B: .	C: 2	D: 6	E: 2.8%	F: .	G: -1
[11] OC(c1ccc(Cl)cc1)c1ncc(-c2ccccc2F)[nH]1 (stereo not given)
  A: -2.0	B: .	C: -6	D: 0	E: 2.1%	F: .	G: -11
[12] CCOC(=O)CCSc1nc(C(C)(C)C)cc(C(F)(F)F)c1C#N
  A: -0.2	B: 13	C: 49	D: 17	E: 0.6%	F: 10%	G: 1
[13] Cc1cn(-c2cc(NC(=O)c3ccc(C)c(NC(=O)c4cccc(-c5cn[nH]c(=O)c5)c4)c3)cc(C(F)(F)F)c2)cn1
  A: 1.7	B: -1	C: -5	D: -12	E: 0.7%	F: 16%	G: -2
[14] O=C1N[C@@H](c2ccccc2)COC(=O)[C@H](Cc2ccc(F)cc2)C/C=C\C[C@@H]1CC(=O)N(CCO)Cc1ccccc1
  A: -1.8	B: .	C: -10	D: .	E: 0.1%	F: .	G: -17
[15] Cc1ccccc1-c1nc(CS(=O)(=O)CC(=O)NC(C)c2ccccc2)c(C)o1 (stereo not given)
  A: -2.4	B: 16	C: -6	D: -2	E: 0.4%&1.9%	F: 2%	G: -19
[16] CC1CCN(C(=O)COC(=O)c2n[nH]c3ccccc23)CC1
  A: -0.6	B: 14	C: -11	D: -8	E: 2.2%	F: 9%	G: -16
[17] CCc1ccc(N2C(=O)CC(N3CCC(C(=O)OC)CC3)C2=O)cc1 (stereo not given)
  A: -2.0	B: -4	C: 2	D: 8	E: -0.1%	F: 16%	G: 2
[18] COc1ccc(Cc2nnc(NC(=O)CSc3ccccc3)s2)cc1
  A: 1.3	B: 9	C: 3	D: -1	E: .	F: 9%	G: 9
[19] O=C(CN=C1NC(=O)C(c2ccccc2)(c2ccccc2)N1)NCc1ccc(F)cc1
  A: -2.7	B: 0	C: 9	D: -2	E: 0.0%	F: -12%	G: 0
[20] Cc1c(C(=O)N/N=C/c2c(O)ccc3ccccc23)nnn1-c1nonc1N
  A: -1.1	B: -6	C: 4	D: 0	E: -1.4%	F: 15%	G: -8
[21] O=C(OCc1ccc(Br)cc1)c1cccnc1Cl
  A: -2.1	B: -3	C: 29	D: 21	E: 1.0%	F: -4%	G: 6
[22] O=C(/C=C/c1c(Cl)nc2ccccn12)N1CCN(c2ccccc2F)CC1
  A: 0.1	B: -1	C: 3	D: -23	E: 0.7%	F: -3%	G: 0
[23] CCCC(=O)Nc1ccc(-c2nc3ncccc3o2)cc1
  A: -2.4	B: 3	C: 7	D: .	E: 11%	F: 26%	G: -5
[24] O=C(Nc1ccccc1)c1cc(C2CCCN(C(=O)C3CC3)C2)on1 (stereo not given)
  A: -1.9	B: .	C: 4	D: 0	E: 0.2%	F: .	G: -10
[25] CCOC(=O)N1CCN(C(=O)c2cc3sccc3n2C)CC1
  A: 4.9	B: -22	C: -1	D: 4	E: -3.0%[38.3 µM]	F: 13%	G: 4

One compound at a time, from the list above. Order of values: D2 ag	TRPV1 potentiator	Six1-Eya2 inh	CtBP-E1A blk	PINK1 modulator	Sfp inh	D2 PAM
`COc1ccc(-c2c(C)nn3c(N4CCCCCC4)cc(C)nc23)cc1OC` is listed with 7.6	-38	-5	2	?	-26%	0
`COc1ccc(Cc2nnc(SCC(=O)N(C)c3ccccc3)o2)cc1` is listed with 4.1	2	0	0	-0.5%	10%	-3
`Cc1c(C(=O)N/N=C/c2c(O)ccc3ccccc23)nnn1-c1nonc1N` is listed with -1.1	-6	4	0	-1.4%	15%	-8
`CCCC(=O)Nc1ccc(-c2nc3ncccc3o2)cc1` is listed with -2.4	3	7	.	11%	26%	-5
`Cc1ccc(N2CC(C(=O)Nc3nnc(SCCC4OCCO4)s3)CC2=O)cc1C` (stereo not given) is listed with 4.3	1	2	6	4.4%	-11%	23

Additional records.
Letters: A = D2 ag; B = TRPV1 potentiator; C = Six1-Eya2 inh; D = CtBP-E1A blk; E = PINK1 modulator; F = Sfp inh; G = D2 PAM
[26] Cc1ccc(C(C(=O)NC(C)(C)C)N(CC2CCCO2)C(=O)CCC(=O)Nc2ccccn2)cc1 (stereo not given)
  A: -2.4	B: -16	C: 23	D: 1	E: 0.1%	F: 11%	G: -4
[27] Cc1ccc(-c2ccc(CN3C(C(C)C)C(=O)N(Cc4cn(CCC5OCCO5)nn4)CCS3(=O)=O)cc2)cc1 (stereo not given)
  A: -2.3	B: .	C: 1	D: 4	E: 4.0%	F: .	G: -12
[28] Cc1cccc(CN2CCC(C(=O)Nc3cccc(-c4cccc(F)c4)c3)CC2)n1
  A: -1.3	B: -16	C: -8	D: -7	E: -1.1%	F: -2%	G: -26
[29] COC(=O)C(CC(C)C)NC(=O)c1cc(OC)c(OC)c(OC)c1 (stereo not given)
  A: -4.9	B: -2	C: -2	D: 2	E: 1.8%	F: 5%	G: 2
[30] Cc1ccc2c(C(=O)CN3CCN(C4CCCCC4)CC3)c(C)[nH]c2c1
  A: -1.8	B: 15	C: -6	D: 1	E: 1.9%	F: -3%	G: -32
[31] CCc1ccccc1NC(=O)C1CCCN(S(=O)(=O)c2c(C)noc2C)C1 (stereo not given)
  A: -2.2	B: 6	C: 0	D: 1	E: 6.3%	F: 8%	G: -25
[32] CCCCOC(=O)c1ccc(NC(=O)C(=O)NCCN(CC)CC)cc1
  A: -2.7	B: -15	C: 2	D: 9	E: -0.2%	F: -21%	G: -2
[33] CC(C)OCCCNC(=O)C1CCC(=O)N1C(C)C (stereo not given)
  A: -2.8	B: 8	C: 1	D: 9	E: -2.0%[38.3 µM]	F: 13%	G: -5
[34] CCCCCC(=O)N/N=C(\C)c1ccc(NC(=O)c2ccco2)cc1
  A: -5.1	B: -9	C: 7	D: -17	E: 3.3%	F: 2%	G: 1
[35] CC1CN(S(=O)(=O)c2cccc(C(=O)NCCC3=CCCCC3)c2)CC(C)O1 (stereo not given)
  A: -1.8	B: 2	C: 8	D: -5	E: 0.1%	F: .	G: -6
[36] CCN(CC)S(=O)(=O)c1ccc(N2CCN(C)CC2)c(NC(=O)CSCC(=O)Nc2cccc(C)c2)c1
  A: -5.4	B: 8	C: -3	D: -2	E: -1.8%	F: .	G: -7
[37] COC(=O)c1cccc(N2C(=O)c3ccccc3S2(=O)=O)c1
  A: -2.5	B: -12	C: 0	D: 3	E: -0.9%	F: -2%	G: -13
[38] Cc1cc(=O)oc2c3c(cc(OCC(=O)NCC4CCC(C(=O)O)CC4)c12)OC(C)(C)CC3 (stereo not given)
  A: 4.4	B: 1	C: -15	D: -13	E: 0.8%	F: 5%	G: 25
[39] CS(=O)(=O)N1CCC(C(=O)N2CCN(c3ccccc3F)CC2)CC1
  A: 0.6	B: -20	C: 2	D: -1	E: -0.1%	F: 10%	G: -4
[40] Cc1cnc(C(=O)OCC(=O)Nc2ccc(C)c(S(=O)(=O)N3CCOCC3)c2)cn1
  A: -1.9	B: .	C: 2	D: -2	E: 1.8%	F: .	G: -8
[41] CNS(=O)(=O)c1cccc(C(=O)OCc2cc(=O)n3cc(Br)ccc3n2)c1
  A: 0.4	B: 7	C: -1	D: 4	E: -1.2%	F: 5%	G: -12
[42] COc1ccc(OCc2cc(=O)[nH]c3ccccc23)cc1
  A: 3.9	B: 3	C: -6	D: -3	E: 0.1%	F: 7%	G: 0
[43] CCOc1ccccc1N1CCN(C(=O)C2c3ccccc3Oc3ccccc32)CC1
  A: -4.2	B: -19	C: -3	D: -6	E: 3.1%	F: 4%	G: -15
[44] COc1cc(OC)c(C(=O)O/N=C(\N)c2ccccc2)cc1OC
  A: 6.9	B: 2	C: -16	D: -3	E: 2.6%	F: 9%	G: 11
[45] CCOC(=O)C(C)Sc1nc(=O)n2ccccc2n1 (stereo not given)
  A: ?	B: 0	C: -12	D: .	E: 0.5%	F: 6%	G: -3
[46] O=C(c1ccco1)N1CCN(C(=O)c2sccc2-c2ccccc2)CC1
  A: -1.3	B: -4	C: 5	D: 8	E: 6.0%[38.3 µM]	F: -6%	G: 7

Entries above shown as hits in Sfp inh:
| nr | molecule | D2 ag | Six1-Eya2 inh | CtBP-E1A blk | PINK1 modulator | Sfp inh | D2 PAM |
| --- | --- | --- | --- | --- | --- | --- | --- |
| 8 | COCCN=c1scc(-c2ccc3c(c2)NC(=O)CO3)n1/N=C(\C)c1ccc(O)cc1 | -0.1 | ? | -23 | ? | 89µM* | -8 |
